Assay outcomes from PubChem.
Cruzain noTriton – blocks cruzain activity in detergent-free assay | purified cruzain, Z-FR-AMC fluorescence, no detergent | actives 2.3% (n = 200,000) | AID 1476 | Potency, µM, inactives show max response, negative = inhibition, usual class: inhibitors | P25779; active = well fitted curve in the direction sought with a large enough effect; inconclusive = small, poorly fitted or top-dose-only effect, or another doubt; inactive = no such curve, though single readings can be large; an effect the other way counts as inactive or inconclusive;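 also: plate controls were enzyme without inhibitor for no effect and buffer without enzyme for full effect; nearly all actives have a fitted effect of over 40% in size; top concentration of the series not given in the record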
Target sequence (P25779 123-467 limits assumed): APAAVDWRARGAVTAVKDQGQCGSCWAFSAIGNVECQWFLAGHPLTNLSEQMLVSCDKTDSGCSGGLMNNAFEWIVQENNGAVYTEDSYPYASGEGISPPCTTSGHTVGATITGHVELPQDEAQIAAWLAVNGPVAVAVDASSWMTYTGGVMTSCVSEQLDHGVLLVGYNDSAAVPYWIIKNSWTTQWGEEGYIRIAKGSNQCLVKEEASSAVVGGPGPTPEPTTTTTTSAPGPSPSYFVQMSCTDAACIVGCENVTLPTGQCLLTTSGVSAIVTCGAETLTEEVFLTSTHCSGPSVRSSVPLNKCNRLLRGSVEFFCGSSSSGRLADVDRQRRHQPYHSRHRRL
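Purified cruzain at 1.5 nM, pre-incubated 15 min with compound at room temperature in 100 mM sodium acetate pH 5.5, 5 mM DTT, 0.00005% Triton X-100. Reaction started with 2 uM Z-FR-AMC; AMC fluorescence increase over 60 s gives rate.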
NS1 function inh – blocks influenza NS1 protein function | Potency, µM (highest dose often 46.1 µM), for inactives: top-dose activity, positive = more growth | AID 2326 | S. cerevisiae slowed by influenza A NS1, growth recovery by OD600 | actives 0.4% (n = 270,000); also: actives are rising curves; nearly all actives have a fitted effect of over 50% in size
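A cell-based growth assay was used: compounds that relieve NS1-induced slow growth of budding yeast raise OD600. Assay medium was yeast nitrogen base with ammonium sulphate and -URA supplement, pH 6.0, with 2% galactose.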
StopGo reporter – FMDV 2A StopGo reporter, luciferase signal | AID 1159524 | Potency, µM (highest dose often 57.9 µM), for the others: top-dose signal change, negative = less light | human cells with a luciferase reporter of 2A StopGo recoding; control for the full effect not named in the record | actives 1.2% (n = 410,000); active = well fitted falling curve with a large enough effect; inconclusive = small, poorly fitted or top-dose-only effect; inactive = no such curve, though single readings can be large or run the other way; tested in HEK293T cells; also: % is scaled to controls: 0 for no effect and ±100 for the full control effect; nearly all actives have a fitted effect of over 45% in size; luciferase light after 4 h
MARV entry inh – blocks Marburg virus binding to or entry into cells; Marburg virus pseudotyped entry inhibition, cell reporter; control for the full effect not named in the record; about a third of the inactives were read at about 46 µM; Potency, µM (series often up to 37.8 µM), without a hit: at the highest dose activity change, negative = inhibition, actives largely listed as inhibitors; actives 1.8% (n = 300,000); AID 540276; active = well fitted inhibition curve with a large enough effect; inconclusive = small, poorly fitted or top-dose-only effect, or effect the other way; inactive = flat fitted curve, though single readings scatter; tested in HEK293 cells; about a fifth of its hits are not listed in these tables; also: % is scaled to controls: 0 for no effect and ±100 for the full control effect; luciferase read-out
Lassa entry inh – Lassa virus entry inhibition | Lassa virus pseudotype entry inhibition, cell reporter; control for the full effect not named in the record | Potency, µM (highest dose often 37.9 µM), inactives show at the top dose activity change, negative = inhibition, most hits filed as inhibitors | actives 1.2% (n = 300,000); active means well fitted inhibition curve with a large enough effect; inconclusive means small, poorly fitted or top-dose-only effect, or effect the other way; inactive means flat fitted curve, though single readings scatter; tested in HEK293 cells; also: % is scaled to controls: 0 for no effect and ±100 for the full control effect; nearly all actives have a fitted effect of over 50% in size; luciferase read-out
RE007 growth inh – less growth of the S. pombe RE007 Vpr strain; Potency, µM (series often up to 92.2 µM), inactives show top-dose activity change, negative = less growth; actives 0.21% (n = 360,000); S. pombe RE007 Vpr strain, BacTiter-Glo ATP luminescence, 24 h; control for the full effect not named in the record; active = well fitted falling curve with a large enough effect; inconclusive = small, poorly fitted or top-dose-only effect; inactive = no such curve, though single readings can be large or run the other way;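 also: % is scaled to controls: 0 for no effect and ±100 for the full control effect; nearly all actives have a fitted effect of over 50% in size; the assay follows cell death caused by Vpr and the record does not say whether a fall means rescue or toxicity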
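Fission yeast strain RE007, carrying one chromosomally integrated HIV-1 vpr copy, was seeded at OD 0.01 in PMG+AL medium with 23 nL pinned compound. After 24 h at 30 °C and 99% humidity, viability was read by BacTiter-Glo luminescence.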
SARS PLP yeast – inhibitors of SARS-CoV papain-like protease in yeast; S. cerevisiae expressing SARS-CoV PLpro, growth rescue; control for the full effect not named in the record; Potency, µM (highest dose often 32.9 µM), for the others: top-dose activity, positive = growth rescue; actives 0.19% (n = 330,000); also: 0% is about no effect; nearly all actives have a fitted effect of over 55% in size; growth read by luminescence after 48 h
Cruzain Triton – cruzain (T. cruzi) inhibition with detergent. P25779. purified cruzain, Z-FR-AMC fluorescence, 0.01% Triton. Potency, µM, without a hit: max response, negative = inhibition, usual class: inhibitors. actives 0.43% (n = 200,000); active = well fitted curve in the direction sought with a large enough effect; inconclusive = small, poorly fitted or top-dose-only effect, or another doubt; inactive = no such curve, though single readings can be large; an effect the other way counts as inactive or inconclusive;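 also: plate controls were neutral wells for no effect and buffer without enzyme for full effect; nearly all actives have a fitted effect of over 40% in size; top concentration of the series not given in the record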
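15 min RT preincubation of 1.5 nM cruzain with compound, then 2 uM Z-FR-AMC added; kinetic AMC fluorescence, 60 s delta. Triton X-100 0.01%, pH 5.5.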
Numbers without * were called inactive; ? = inconclusive; / = not tested or not shown; & = joins results of further samples; [ ] = another dose, or the depositor's remark. Unless noted, calls follow the shape of the dose curve; as a rule, active means well fitted rising curve with a large enough effect; inconclusive means small, poorly fitted or top-dose-only effect; inactive means no such curve, though single readings can be large or run the other way. Potency is read from the fitted curve at half-maximal effect.

# | SMILES | Cruzain noTriton | NS1 function inh | StopGo reporter | MARV entry inh
1 | O=C(COC(=O)c1cnccn1)c1ccc(C2CCCCC2)cc1 | / | -69% | 5% | 11%[46.1 µM]
2 | Cc1cccc(-n2c(O)c(/C=N/NC(=O)c3ccccc3Cl)c3ccccc3c2=O)n1 | 13% | ? | -10% | ?
3 | CCCC(=O)NC(NC(=S)Nc1c(C)n(C)n(-c2ccccc2)c1=O)C(Cl)(Cl)Cl (stereo unspecified) | -5% | 1% | -20% | 17%
4 | CCN1C(c2ccc(F)cc2)=CS/C1=C(\C#N)c1nnc2n1-c1ccccc1SC2 | 1% | 3% | / | ?
5 | COc1ccc(F)cc1S(=O)(=O)NCCCn1ccnc1 | / | 4% | 3% | 3%[46.1 µM]
6 | CCOC(=O)c1ccc(NCc2nc3ccccc3n2C)cc1 | 4% | -115% | 59%[activator] | ?
7 | Cc1ccnc(SCC(=O)c2ccc(Br)cc2)c1C#N | -20% | 1% | -24% | 1%
8 | O=C(Cc1cccs1)Nc1nncs1 | -10% | 3% | -4% | -2%
9 | CN(CCC1CCCCO1)C(=O)CCc1nnc(Cc2c[nH]c3ccccc23)o1 (stereo unspecified) | / | 12% | 3% | 10%
10 | O=C(CSc1ccccc1)Nc1ccc(N2CCOCC2)c(F)c1 | / | 9% | 72%[activator] | /

# | Lassa entry inh | RE007 growth inh | SARS PLP yeast | Cruzain Triton
1 | 15%[46.1 µM] | 26% | -4% | /
2 | -24% | 2% | 14µM* | -6.1%
3 | 23% | -3% | 9% | 1.1%
4 | -23% | 5% | 0% | -7.9%
5 | 9%[46.1 µM] | -7% | 21% | /
6 | -16% | ? | -6% | -2.2%
7 | -7% | -1% | -5% | -8.5%
8 | 28% | 14% | 1% | 6.0%
9 | ? | -5% | 27% | /
10 | / | 0% | 1% | /

# | SMILES | Cruzain noTriton | NS1 function inh | StopGo reporter | MARV entry inh
11 | O=C1CN(C(=O)Cc2ccc(F)cc2)C(c2ccccc2)c2cc(Cl)ccc2N1 (stereo unspecified) | 15% | / | -26% | -23%[46.1 µM]
12 | O=C(c1nn2cccnc2c1Cl)N1CCN(c2ccccc2)CC1 | -10% | -3% | 0% | 21%
13 | Cn1cc(SCC(N)=O)c2ccccc21 | -5% | -9% | -8% | /
14 | CCOc1ccc(N2CC(c3nc4ccccc4n3CCCCOc3ccc(OC)cc3)CC2=O)cc1 (stereo unspecified) | 4% | / | -20% | ?
15 | CCCn1c(SCC(=O)NCCc2ccc(OC)c(OC)c2)nc2c1c(=O)n(C)c(=O)n2C | -4% | 0% | -15% | 0%&-6%
16 | O=C(CSc1nc2c([nH]c3ccccc32)c(=O)n1-c1ccccc1)NCc1ccc(F)cc1 | -5% | / | -17% | /
17 | O=C(Nc1ccccc1C(=O)OCc1cc(=O)n2nc(C3CC3)sc2n1)c1cccc(F)c1 | 11% | / | -21% | /
18 | CN1C(=O)/C(=C2/C=Cc3ccccc3N2CCCS(=O)(=O)O)SC1=S | -1% | -4% | -23% | -4%&13%
19 | Cn1nnc(NCc2cc(Br)ccc2OCc2ccccc2F)n1 | / | 0% | -14% | /
20 | O=C(NCC12CC3CC(CC(C3)C1)C2)c1cc2nc(-c3ccccc3)cc(C(F)(F)F)n2n1 | -1% | / | -18% | -11%[46.1 µM]

# | Lassa entry inh | RE007 growth inh | SARS PLP yeast | Cruzain Triton
11 | ? | / | / | -6.2%
12 | 7% | 3% | 3% | 1.1%
13 | / | 5% | -2% | -2.6%
14 | ? | / | / | -6.2%
15 | -2% | -3% | -2% | 4.0%
16 | ? | / | / | -2.1%
17 | 18%[46.1 µM] | / | / | 1.9%
18 | -3% | -23% | -9% | -15%
19 | / | 9% | -3% | /
20 | 1%[46.1 µM] | / | / | 1.3%

# | SMILES | Cruzain noTriton | NS1 function inh | StopGo reporter | MARV entry inh
21 | [N-]=[N+]=NC[C@H](Cc1ccccc1)N1CC[C@@H](OCc2ccccc2)CCC1=O | / | 16% | -9% | /
22 | CC(C)(C)c1nc(NCCN2CCOCC2)c2nnn(Cc3ccccc3Cl)c2n1 | ? | -5% | -8% | ?
23 | Cn1nnc2cc(C(=O)NC3CC3)ccc21 | -13% | 2% | -16% | 2%
24 | CC(NC(=O)CN(C)Cc1ccc(Br)cc1)c1ccccc1 (stereo unspecified) | / | -8% | -11% | /
25 | CN(C)c1ccc(NC(=O)c2cn(-c3ccccc3)nc2-c2cccs2)cc1 | ? | 8% | 19% | ?
26 | CC(=O)N1CCOc2ccc(S(=O)(=O)N3CCC(C(=O)Nc4ccc(C)cc4)CC3)cc21 | / | 7% | -2% | /
27 | COc1ccc(S(=O)(=O)N2CCOCC2)cc1NC(=O)CCc1nc2ccccc2c(=O)[nH]1 | / | 0% | -8% | 1%
28 | COc1ccccc1N1CCN(C(=O)C(=O)c2cn(CC(=O)N3CCOCC3)c3ccccc23)CC1 | / | -11% | 5% | /
29 | CC1CCCC(C)N1C(=O)COC(=O)CSc1ccc([N+](=O)[O-])cc1 (stereo unspecified) | / | / | -15% | -15%
30 | CCOC(=O)C(C(=O)OCC)C1OC(=O)c2cc3c(cc21)C(=O)OC3C(C(=O)OCC)C(=O)OCC (stereo unspecified) | / | 3% | ? | ?

# | Lassa entry inh | RE007 growth inh | SARS PLP yeast | Cruzain Triton
21 | / | -14% | -4% | /
22 | 0% | 20% | 5% | -12%
23 | -2% | 8% | / | 5.7%
24 | / | 21% | 0% | /
25 | -17% | 4% | -14% | -0.7%
26 | / | 9% | -3% | /
27 | 21% | 4% | -5% | /
28 | / | -3% | 0% | /
29 | 13% | 78% | 2% | /
30 | ? | -14% | 1% | /

# | SMILES | Cruzain noTriton | NS1 function inh | StopGo reporter | MARV entry inh
31 | Cn1c(=O)c2c(-c3ccccc3)n3c(c2n(C)c1=O)C(c1cccc([N+](=O)[O-])c1)Nc1ccccc1-3 (stereo unspecified) | -4% | / | ? | -3%[46.1 µM]
32 | O=C(Nc1ccccc1F)N1CCc2ccccc2C1 | / | -32% | 58%[activator] | /
33 | Cc1cc2c(ccc3c2no[n+]3[O-])nn1 | -4% | 3% | -15% | ?
34 | Cc1cccc(CCNS(=O)(=O)c2ccc3c(c2)oc(=O)n3C)c1 | -4% | -2% | 15% | -6%
35 | COc1cccc2cc(C(=O)Nc3ccccc3C(=O)N3CCOCC3)oc12 | / | -6% | -15% | ?
36 | CCn1nc(C)c2c(-c3ccccc3)cc(=O)n(C(C)C(=O)NCc3ccccc3OC)c21 (stereo unspecified) | 15% | / | ? | /
37 | Cc1cccc2sc(N(CCCN(C)C)C(=O)CCS(=O)(=O)c3ccccc3)nc12 | / | -39% | ? | /
38 | CC(=O)c1ccc(NC(=O)CN2C(=O)CN(C)C(=O)c3ccccc32)cc1 | 16% | / | -23% | /
39 | O=C(Nc1ccc(N2CCN(C(=O)c3ccco3)CC2)cc1)c1ccccc1F | -6% | -4% | 9% | -13%
40 | CCOC(=O)C1CCN(C(=O)CCn2c(=O)c3cccn3c3cccnc32)CC1 | / | 4% | 3% | -1%[46.1 µM]

# | Lassa entry inh | RE007 growth inh | SARS PLP yeast | Cruzain Triton
31 | -8%[46.1 µM] | / | / | -8.5%
32 | / | -12% | 0% | /
33 | 4% | -9% | -3% | 2.8%
34 | 13% | 7%[3.69 µM] | -2% | -0.9%
35 | -13%[46.1 µM] | 1% | -10% | /
36 | ? | / | / | -7.4%
37 | / | -13% | -3% | /
38 | 2%[46.1 µM] | / | / | 0.9%
39 | -19% | -9% | 1% | -1.6%
40 | 1%[46.1 µM] | 7% | 1% | /

# | SMILES | Cruzain noTriton | NS1 function inh | StopGo reporter | MARV entry inh
41 | CCc1[nH]c(=S)c(C#N)c2c1CCCC2 | 8% | 5% | -7% | ?
42 | Cc1c(C(=O)Nc2cc(S(=O)(=O)N3CCOCC3)ccc2N2CCN(C)CC2)oc2ccccc12 | / | 24% | -28% | 4%[46.1 µM]
43 | CC1CCCN(CCCNS(=O)(=O)c2cc(Br)cc3c2N(C(=O)C2CC2)CC3)C1 (stereo unspecified) | / | 16% | 20% | ?
44 | Cc1cccc(NS(=O)(=O)c2cc3c4c(c2)CCN4C(=O)CC3)c1C | / | / | 10% | -3%
45 | COc1ccc(CCN2CC(C(=O)NCc3ccccc3)CCC2=O)cc1 (stereo unspecified) | / | -5% | -16% | /
46 | C=CCn1c(SCCN2CCCCC2)nc2c1c(=O)[nH]c(=O)n2C | -7% | 0% | -15% | /
47 | Cc1nc(-c2cccc(S(=O)(=O)N3CC(C)OC(C)C3)c2)cs1 (stereo unspecified) | 0% | -13% | -17% | -9%
48 | COCCNC(=O)c1cc2cc(Br)cc(OC)c2oc1=O | -6% | -3% | -4% | 0%
49 | CCOC(=O)c1cc2c(ccn2C)n1Cc1ccccc1Cl | / | -1% | -11% | 1%
50 | O=C(NCCS(=O)(=O)N1CCCCC1)c1ccccc1 | / | / | -8% | -17%

# | Lassa entry inh | RE007 growth inh | SARS PLP yeast | Cruzain Triton
41 | 5% | 55% | 26% | -1.1%
42 | -1% | 6% | 3% | /
43 | 13% | -4% | 1% | /
44 | -10% | -14% | -2% | /
45 | / | -9% | -1% | /
46 | / | 9% | 6% | 0.6%
47 | -3% | 8% | -7% | -7.6%
48 | 18% | 1% | -1% | 4.2%
49 | -25% | 8% | -3% | /
50 | 8% | 14% | 1% | /

Part of the list above, reduced to Cruzain Triton, RE007 growth inh and Lassa entry inh:
cpd | Molecule | Cruzain Triton | RE007 growth inh | Lassa entry inh
41 | CCc1[nH]c(=S)c(C#N)c2c1CCCC2 | -1.1% | 55% | 5%
48 | COCCNC(=O)c1cc2cc(Br)cc(OC)c2oc1=O | 4.2% | 1% | 18%
42 | Cc1c(C(=O)Nc2cc(S(=O)(=O)N3CCOCC3)ccc2N2CCN(C)CC2)oc2ccccc12 | / | 6% | -1%
46 | C=CCn1c(SCCN2CCCCC2)nc2c1c(=O)[nH]c(=O)n2C | 0.6% | 9% | /
